UCH37 DUB inh: inhibitors of human deubiquitinating enzyme UCH37; Q9Y5K5; purified proteasome/UCH37, Ub-AMC cleavage fluorescence; inhibition, % (concentration not given with the values); 330,000 compounds, 0.33% hits; AID 588478;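 active = mean of two replicates above 20%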;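 note: 0% = compound-free wells with enzyme and 100% = wells lacking proteasome; stock transfer was 100 nL into about 20 µL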
Target sequence (Q9Y5K5 whole entry, looked up): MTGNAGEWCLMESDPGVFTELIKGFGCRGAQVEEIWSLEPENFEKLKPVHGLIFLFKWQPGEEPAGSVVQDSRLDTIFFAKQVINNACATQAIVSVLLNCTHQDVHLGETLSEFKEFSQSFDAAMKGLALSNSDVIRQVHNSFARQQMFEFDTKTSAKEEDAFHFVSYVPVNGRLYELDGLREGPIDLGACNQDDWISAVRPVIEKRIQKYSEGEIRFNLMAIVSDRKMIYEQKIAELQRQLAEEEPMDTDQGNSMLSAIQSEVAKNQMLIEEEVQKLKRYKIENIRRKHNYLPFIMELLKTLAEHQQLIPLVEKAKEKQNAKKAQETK
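Material: human UCH37 enzyme supplied as purified proteasome complex / Amount: 0.15 nM proteasome as dispensed / Buffer or medium: pH 7.4 Tris-HCl (50 mM) with ovalbumin, ATP-MgCl2, DTT / Times: preincubation 30 min, reaction 25 min, room temperature / Technique: AMC fluorescence from Ub-AMC cleavage, excitation 355 nm, emission 460 nm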
Bfl-1 A1 inh: inhibitors of the anti-apoptotic protein A1, read as caspase activation. MEF A1-2A-BIM cells, Caspase-Glo 3/7 luminescence, 3 h; percent of clofoctol response, vehicle zero. 330,000 compounds, 0.066% hits. caspase activation, % (test concentration not listed);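 active = over half of replicate activation scores above 10%, or exactly half above 10 with the replicate mean above 10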;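 note: wells of about 30 µL received 50 nL stock; many hits fall short of the cut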
Beta apoptosis: beta cell apoptosis inhibition; AID 435005; INS-1E cytokine-induced death, ATP luminescence, 48 h; percent of positive-control rescue, neutral wells zero; 300,000 compounds, 0.8% hits; protection from apoptosis, % (test concentration not listed);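 active = all replicates at 75% or more, or half of them and the mean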;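 note: 0% = cytokine-treated negative control wells and 100% = positive control rescue; higher means more ATP so stronger rescue from cytokine killing; wells of about 40 µL received 100 nL stock; the first replicate is given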
T cruzi repl: T. cruzi replication inhibition; inhibition, % (concentration not given with the values); 300,000 compounds, 1.4% hits; T. cruzi beta-gal in NIH3T3, luminescence, 90 h;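 active = mean inhibition across valid replicates above about 55%, limit read from the data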;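 note: signal also drops with host cell toxicity which is not excluded here; 0% = plate median of DMSO wells and 100% = zero luminescence signal; higher percent means less beta-gal luminescence so fewer parasites; stock transfer was 50 nL into about 50 µL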
rRNA inh HTS: selective bacterial rRNA inhibition in E. coli. E. coli WT GFP vs humanized-ribosome RFP mutants, fluorescence, 24 h; active compounds read low; DMSO median 0, no signal -100. GFP signal change (wild-type ribosome), % (concentration not given with the values). 350,000 compounds, 1.6% hits;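 active = significant combined selectivity score with lowered wild-type GFP, culture density cut under 30%, mutant RFP and density less affected; inactive = any of these conditions unmet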; note: one replicate is shown; some compounds called inactive have numbers as strong as hits
AF4-AF9 inh: inhibitors of human MLL-AF4/AF9 interaction; P42568; AlphaScreen, biotin-AF4 peptide binding to FLAG-AF9; 350,000 compounds, 0.47% hits; inhibition, % at 10 µM;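 active = every replicate reaching a set inhibition limit, whatever the replicate mean, cut at about 25% in these data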;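 note: 0% = plate neutral control median and 100% = total signal loss; the record names both 10 and 1 µM as test concentration; the first replicate is given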
Target sequence (P42568 whole entry, looked up): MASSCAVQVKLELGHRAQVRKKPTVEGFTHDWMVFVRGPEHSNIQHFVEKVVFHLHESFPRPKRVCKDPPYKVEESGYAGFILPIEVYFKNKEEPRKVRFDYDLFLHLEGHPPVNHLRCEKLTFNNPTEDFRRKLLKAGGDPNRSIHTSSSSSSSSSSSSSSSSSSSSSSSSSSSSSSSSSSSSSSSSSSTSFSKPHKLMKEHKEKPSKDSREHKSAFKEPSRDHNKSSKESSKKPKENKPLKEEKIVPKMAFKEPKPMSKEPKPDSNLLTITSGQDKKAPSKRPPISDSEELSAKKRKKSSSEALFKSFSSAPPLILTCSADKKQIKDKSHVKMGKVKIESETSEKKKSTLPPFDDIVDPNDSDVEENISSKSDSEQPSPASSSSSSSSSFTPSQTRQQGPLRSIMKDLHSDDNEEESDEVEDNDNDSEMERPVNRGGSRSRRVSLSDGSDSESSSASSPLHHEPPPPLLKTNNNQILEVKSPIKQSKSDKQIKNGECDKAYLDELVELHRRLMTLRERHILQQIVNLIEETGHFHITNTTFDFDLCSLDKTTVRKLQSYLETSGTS
FGF22 binding: FGF22 (human) thermal shift binding | 340,000 compounds, 1.5% hits | recombinant FGF22 thermal shift, SYPRO orange fluorescence; percent of sucrose octasulfate shift, DMSO zero | calls only at 9.99 µM;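 active = melting point raised past a set limit in the mean and every replicate; three in four hits are not shown here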
Target sequence (Q9HCT0 whole entry, looked up): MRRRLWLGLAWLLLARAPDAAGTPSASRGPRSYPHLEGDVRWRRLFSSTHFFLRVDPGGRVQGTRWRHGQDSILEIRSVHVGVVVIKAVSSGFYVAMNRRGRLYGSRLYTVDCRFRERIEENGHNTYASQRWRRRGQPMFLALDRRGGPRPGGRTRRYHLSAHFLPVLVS
Ecoli growth: E. coli growth inhibition; Escherichia coli growth, OD600, 23 h; active compounds read low; OD600 absorbance (test concentration not listed); 330,000 compounds, 0.21% hits; AID 1053175;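 active = OD600 absorbance below the run mean of sample wells minus 3.6 SD, in any replicate, cut at about 0.56 in these data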;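 note: stock transfer was 300 nL into about 60 µL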
rRNA inh HTS OD600: second read-out of rRNA inh HTS, no call of its own (marks repeat the call); OD600 change, %; measured here: OD600 growth;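 optical density of the mix in the first replicate; 0 = DMSO median and -100 = no signal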
rRNA inh HTS RFP: recorded beside rRNA inh HTS, whose call it bears; RFP signal change, %; measured here: RFP humanized mutant strains;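 first replicate; 0 = DMSO median and -100 = no signal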
* hit, by the source's call; i = inactive; · = not tested or not shown. These rows are one share of the data (hit frequency here may not be typical).

The line under a structure holds: UCH37 DUB inh	Bfl-1 A1 inh	Beta apoptosis	T cruzi repl	rRNA inh HTS	rRNA inh HTS OD600	rRNA inh HTS RFP	AF4-AF9 inh	FGF22 binding	Ecoli growth
1: CCOC(=O)c1c(CSc2ccccc2)oc2cc(Br)c(O)c(CN(C)C)c12
 : 3.8	0.4	-11	11	-15	-18	25	15	i	0.68
2: Cc1onc(-c2ccccc2Cl)c1C(=O)N(Cc1nc(-c2ccccc2)no1)C1CCCCC1
 : -0.3	-0.7	4	22	·	·	·	·	·	0.75
3: COc1cccc(-c2nc(=S)c3c(n2CCCO)CCCC3)c1
 : 6.4	0.1	·	-17	6	5	-4.3	-21	i	0.6
4: COc1cccc(-n2cc(C(=O)NCCCOC(C)C)c3ccccc3c2=O)c1
 : 0.7	0.0	-10	-8	2	1	0.1	1.7	i	0.69
5: CCc1ccc(N(CC(=O)NC(C)C)C(=O)CCC(=O)Nc2ccccn2)cc1
 : 0.3	-0.7	1	-12	9	14	4.7	-3.5	i	0.65
6: COc1ccc(N2CCN(C(=O)CN3C(=O)c4ccccc4S3(=O)=O)CC2)cc1
 : 5.8	0.4	-3	-5	·	·	·	·	·	0.76
7: O=C(NC1CCN(Cc2ccccc2)CC1)c1ccccc1OCc1ccccc1Cl
 : 2.4	0.0	8	34	-19	-60	-0.7	5.8	i	0.64
8: O=C(CSCc1ccc(Br)cc1)NCCc1ccccc1
 : 4.5	-1.0	·	0	-30	-60	6.0	-0.3	i	0.66
9: O=C(NCCN1CCCCC1)Nc1ccc(Cl)cc1
 : -0.8	-0.3	-3	-7	0	-3	-0.9	0.5	·	0.69
10: COc1cccc(NC(=O)c2ccccc2Br)c1
 : 1.9	-2.4	-2	-16	2	7	-4.9	-13	i	0.67
11: CC(CNS(=O)(=O)c1ccc(Br)cc1)CN(C)C (centres undefined)
 : 0.3	0.3	-5	1	10	4	-0.7	-7.4	i	0.67
12: CCc1noc(C)c1C(=O)NNC(=O)c1ccc(F)cc1
 : -2.1	-0.4	-1	-6	2	6	-1.2	0.1	i	0.69
13: COc1ccc(CCC(=O)Nc2ccc3c(c2)OCO3)cc1OC
 : 0.4	0.2	8	-8	2	5	-1.6	-2.8	i	0.66
14: COc1cccc(OC)c1C(=O)Nc1ccc(C)cc1C(=O)c1ccccc1
 : 5.1	-0.3	7	7	·	·	·	2.9	i	0.7
15: O=C1NCCCC1C(=O)N/N=C/c1cccc([N+](=O)[O-])c1 (centres undefined)
 : ·	3.0	·	-10	12	9	-0.2	-2.6	i	·
16: O=C(CCn1c(=S)oc2ccccc21)Nc1cccc(O)c1
 : 0.8	0.9	-1	-11	-6	-15	0.6	-0.3	i	0.71
17: COc1cc(OC)c(OC)cc1CN1CCSCC1
 : 3.8	0.3	-7	-1	12	9	-0.8	3.2	i	0.65
18: CCCc1nnc(NC(=O)CCC(=O)N2CCN(Cc3ccc(OC)c(F)c3)CC2)s1
 : -3.8	-0.2	7	37	3	5	3.9	1.4	i	0.66
19: Cc1ccc(NC(=O)c2cc([N+](=O)[O-])ccc2NCc2cccnc2)cc1
 : 9.1	0.5	7	23	·	·	·	·	·	0.69
20: O=C(COC(=O)c1cnccn1)Nc1cccc2ccccc12
 : 1.5	-0.1	-7	-16	11	0	4.9	-0.2	i	0.71

Overlap with the part before: 2 entries, then new ones.
The line under a structure holds: UCH37 DUB inh	Bfl-1 A1 inh	Beta apoptosis	T cruzi repl	rRNA inh HTS	rRNA inh HTS OD600	rRNA inh HTS RFP	AF4-AF9 inh	FGF22 binding	Ecoli growth
19: Cc1ccc(NC(=O)c2cc([N+](=O)[O-])ccc2NCc2cccnc2)cc1
 : 9.1	0.5	7	23	·	·	·	·	·	0.69
20: O=C(COC(=O)c1cnccn1)Nc1cccc2ccccc12
 : 1.5	-0.1	-7	-16	11	0	4.9	-0.2	i	0.71
21: COc1cccc(OCc2cc(C(=O)N3CCC(C(O)C(C)C)CC3)no2)c1 (centres undefined)
 : 2.0	1.5	-5	1	0	-6	0.2	-5.4	i	0.66
22: Cc1ccc2[nH]c(O)c(N=Nc3ccccc3C)c2c1
 : 6.2	0.6	-6	-11	17	9	8.6	-2.9	i	0.7
23: CC(=O)c1c(N2CCN(c3cccc(Cl)c3)CC2)nc(=S)n(-c2ccccc2)c1C
 : 3.2	-0.4	19	25	·	·	·	·	·	0.65
24: COc1ccc(N2C(=O)CC(Nc3cccc(C(C)=O)c3)C2=O)cc1OC (centres undefined)
 : 0.1	-0.3	·	-17	·	·	·	·	·	0.7
25: Cn1nc(C(=O)NCc2ccccc2)cc1C(=O)NCc1ccccc1
 : 1.9	0.3	-3	-11	6	10	1.1	-2.4	i	0.73
26: CCCCN1CC(=O)N2[C@H]3c4cc(C)ccc4OC[C@@H]3[C@H](C(=O)OCC)[C@]2(C)C1=O
 : 0.0	-0.1	1	·	-5	-1	-9.0	0.8	i	·
27: COc1ccc(Cl)cc1NC(=O)C(C)N1CCN(C/C=C/c2ccccc2)CC1 (centres undefined)
 : 2.1	2.1	7	45	·	·	·	·	·	0.66
28: O=C(CCSCc1ccccc1)Nc1ccc2c(c1)OCCO2
 : 1.2	0.2	8	-4	-18	-17	0.2	-3.6	i	0.69
29: N#CCCN1CCN(S(=O)(=O)c2ccc(S(=O)(=O)NC3CCCCC3)cc2)CC1
 : 5.4	0.4	-5	8	8	2	1.0	-2.5	·	0.75
30: Cc1ccc(NNC(=O)C(O)(c2cccc(C(F)(F)F)c2)c2cccc(C(F)(F)F)c2)cc1
 : 6.7	0.5	3	39	·	·	·	6.4	i	0.67
31: Cn1c(=O)c2c(ncn2CC(=O)OCC(=O)Nc2ccc(Cl)cc2Cl)n(C)c1=O
 : 2.8	0.0	-2	-7	4	0	2.0	-3.4	i	0.66
32: Cc1noc2ncnc(Oc3ccccc3)c12
 : 0.8	1.0	-2	-1	·	·	·	·	·	0.76
33: CCCN(CCC)C(=O)C1CCN(c2ccc(S(=O)(=O)N3CCOCC3)cc2[N+](=O)[O-])CC1
 : 0.4	-0.9	9	22	-3	-10	-1.9	3.3	i	0.7
34: C=CCn1c(-c2cc(OC)c(OC)c(OC)c2)n[nH]c1=S
 : -3.9	0.0	-2	-9	·	·	·	0.4	i	0.72
35: Cc1csc(NC(=O)c2oc3ccccc3c2C)n1
 : -0.8	-0.4	-3	9	-12	-16	-1.0	6.8	i	0.65
36: Cc1cccc(C(C)C)c1-n1nnnc1-c1ccccc1
 : 0.7	0.1	-1	1	-45	-37	-9.8	-6.5	i	0.67
37: Cc1ccc(NC(=O)CCc2nnc3ccc(N4CCC5(CC4)OCCO5)nn23)nc1
 : 2.0	1.1	-4	-29	6	0	0.3	1.0	i	0.7
38: COc1ccc(-c2sc(Nc3ccccc3)n[n+]2-c2ccc(F)cc2)c(OC)c1OC
 : -1.6	0.8	-8	33	23	8	-3.1	-8.9	i	0.67
39: COCCn1c(C)cc(C(=O)CSc2nnc(-c3cccnc3)n2-c2ccccc2F)c1C
 : -0.8	0.4	-5	2	·	·	·	·	·	0.71
40: CN1C(=O)C(CCC(N)=O)NC1=S (centres undefined)
 : 2.6	-0.5	-4	-1	·	·	·	-0.3	i	0.67
41: C=CCn1c(SCCN2C(=O)c3ccccc3C2=O)nc2scc(-c3ccc(F)cc3)c2c1=O
 : -16	·	·	·	2	10	-2.1	7.8	i	0.73
42: CC(=O)Nc1ccc(NC(C)=C(C#N)C#N)cc1
 : 3.1	0.2	-1	1	9	6	3.7	1.0	i	0.63
43: O=C(NCc1ccncc1)C(=O)NCC(c1ccco1)N1CCN(c2ccccc2)CC1 (centres undefined)
 : -0.8	0.5	-5	-14	-3	-1	1.4	-8.2	i	0.71
44: CN(C)c1oc(-c2ccc(Cl)cc2)nc1S(=O)(=O)c1ccccc1
 : 3.7	-0.7	-6	-3	-1	-11	0.2	-1.1	i	0.71
45: C=C(C)c1ccc(C(C)(C)NC(=O)N(Cc2ccccc2)Cc2ccco2)cc1
 : 2.0	-1.4	-5	-1	·	·	·	·	·	0.7
46: O=C(Cc1ccc(NC(=O)C2CCCN(C(=O)C3CC3)C2)cc1)Nc1cccc(C(=O)N2CCCC2)c1 (centres undefined)
 : 4.1	·	·	·	-4	6	-2.5	0.5	i	0.7
47: COc1ccc(C(=O)NC2CC(C)(C)Cc3c2cnn3-c2ccccc2C)c(OC)c1OC (centres undefined)
 : -1.4	-0.3	11	10	-7	-19	-3.8	-9.2	i	0.69
48: CCOC(=O)c1[nH]c2ccc(Br)cc2c1NC(=O)CNC
 : 0.6	1.5	-9	10	·	·	·	·	·	0.68
49: O=c1ccc(-c2ccc(S(=O)(=O)NCc3cccc(Br)c3)s2)n[nH]1
 : 0.2	1.4	7	-2	-6	-7	1.3	-2.8	i	0.67
50: NC(=O)C1=C[C@@H](C2CCCCC2)C[C@@H](OCCCCO)O1
 : 4.1	0.4	1	19	7	-1	-1.6	-3.4	i	·
51: CC(=O)OCCC(C)C
 : 2.4	·	·	·	·	·	·	-3.0	i	0.71
52: O=C(CCS(=O)(=O)c1cccs1)Nc1ccc(C(=O)NCc2ccc(F)cc2)cc1
 : 2.5	0.1	-19	-2	·	·	·	·	·	0.68
53: CC(C)(C)c1ccc(S(=O)(=O)Nc2ccc3c(c2)COC3=O)cc1
 : 2.5	0.0	-10	-3	3	7	3.4	-1.4	i	0.73
54: N#CC1(c2ccccc2)CCC(NCCc2ccccc2)CC1 (centres undefined)
 : 3.8	0.4	-7	24	6	3	0.6	4.6	i	0.63
55: O=C(Cn1nc(CNc2ccc(Cl)cc2)[n+]2c1CCCCC2)c1ccc(Cl)cc1
 : 2.6	0.6	-10	1	·	·	·	·	·	0.66
56: CCn1nnc(NC(=O)c2ccccc2Br)n1
 : 1.6	-0.3	2	-7	·	·	·	·	·	0.63
57: Cc1ccccc1CN1CCN(C(=O)c2ccc(F)cc2)CC1
 : 4.1	-0.7	-3	6	-12	-6	-4.3	-1.0	i	0.71
58: CC1CCN(C(=O)CSc2nnc(CNc3ccc(F)cc3)n2Cc2ccco2)CC1
 : 4.7	-1.5	-4	-9	·	·	·	·	·	0.67
59: CNC(=O)CS(=O)(=O)CC(=O)Nc1cc(OCCOC)c(Cl)cc1Cl
 : 2.2	-1.7	-1	-10	6	7	3.1	-1.5	i	0.7
60: O=C(COC(=O)/C=C/c1ccc(C(F)(F)F)cc1)NCC1CCCO1 (centres undefined)
 : 4.1	-0.5	·	-2	5	17	1.7	8.9	i	0.63
61: CC1=C(C(N)=O)C(c2ccccn2)n2nc(-c3ccccc3Cl)nc2N1 (centres undefined)
 : 1.4	·	·	-7	2	1	0.0	0.5	i	0.73
62: CC1(C)CC(=O)C=C(c2cccc(O)c2)C1=O
 : 7.7	0.2	-8	·	15	11	2.5	-4.1	i	0.7
63: C=CCN1C(=O)c2ccc(C(=O)NCCc3ccc(OC)c(OC)c3)cc2C1=O
 : 1.6	0.2	1	-6	8	5	0.3	-1.1	i	0.66
64: COc1cc(Nc2nc3ccccc3nc2NS(=O)(=O)c2ccc([N+](=O)[O-])cc2)cc(OC)c1OC
 : 10	-0.3	20	37	4	22	-4.3	10	i	0.68
65: Cc1ccc(S(=O)(=O)N2CCC[C@H]2C(=O)Nc2ccccc2C)cc1
 : 0.7	-0.4	-1	·	-8	-10	2.5	-0.9	i	0.71

Screening data from PubChem BioAssay.
